# Screening results deposited in PubChem BioAssay by National Center for Advancing Translational Sciences (NCATS).
# ClpP mod: qHTS Assay for Activators of ClpP. hit rate 1.9% among 340,000. AID 651965, 2013. purified B. subtilis ClpP, FRET peptide cleavage, 20 min. Potency, µM (highest dose often 57.5 µM), inactives show top-dose activity change, negative = active; active = well fitted falling curve with a large enough effect; inconclusive = small, poorly fitted or top-dose-only effect; inactive = no such curve, though single readings can be large or run the other way; note: potency is the fitted concentration of half-maximal effect; the source files actives as falling curves though it sought activators and does not explain the sign; nearly all actives have a fitted effect of over 65% in size; many hits overshoot -100%
# Target sequence (P80244 whole entry, looked up): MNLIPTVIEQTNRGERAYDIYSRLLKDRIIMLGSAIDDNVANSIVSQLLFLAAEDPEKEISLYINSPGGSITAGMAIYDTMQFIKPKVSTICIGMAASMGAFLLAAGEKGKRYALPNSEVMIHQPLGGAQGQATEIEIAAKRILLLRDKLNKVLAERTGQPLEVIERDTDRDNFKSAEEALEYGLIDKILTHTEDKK
#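 Buffer: 100 mM Tris/HCl pH8, 100 mM KCl, 0.05% low protease BSA, 2.5% glycerol, 0.01% Tween-20. ClpP 10 microg/mL final; 20 min RT; delta FRET normalized to ADEP and DMSO controls.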
# Menin-MLL FL inh: displaces fluorescein MLL peptide from human menin | 290,000 tested, under 10 active | FP activity change, % at 61.4 µM | Fluorescence polarization, fluorescein-MLL peptide displacement from menin; inconclusive = falling polarisation curve, or a change in total fluorescence; inactive = total fluorescence flat and polarisation flat or rising; no compound was filed as active; the % refers to the polarisation; negative = inhibition;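 note: % of control where 0% means no effect; inhibitors lower the polarisation; unlabelled MLL peptide was the positive control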
# TRPV1 potentiator: potentiators of human vanilloid receptor 1 (TRPV1) | Q8NER1 | TRPV1-expressing cells, Fluo-8 calcium influx, capsaicin EC20 potentiation; host cell line not named in the record; control for the full effect not named in the record | potentiation, % at 8.33 µM | hit rate 0.02% among 320,000; active means potentiation above 80%; inconclusive means 30% to 80%; inactive means below 30%; note: 0% is about no effect
#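 TRPV1-expressing cells were cultured overnight at 35.5C and loaded with Fluo-8 calcium dye for 40 to 90 min at room temperature. After a 10 s baseline, compound was added and calcium influx was read kinetically for 3 min (ex 480/em 520 nm).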
# Sfp PPTase inh: Sfp phosphopantetheinyl transferase inhibition. Q9F4F7. Biochemical Sfp PPTase activity, qHTS. Potency, µM, for inactives: max response, negative = inhibition, hits mostly inhibitors. hit rate 3.5% among 310,000. AID 1490; active = well fitted inhibition curve with a large enough effect; inconclusive = small, poorly fitted or top-dose-only effect, or another doubt; inactive = no such curve, though single readings can be large or run the other way;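 note: the enzyme is Sfp with the accession as filed and its product quenches rhodamine fluorescence; potency is the fitted concentration of half-maximal effect; 0% = enzyme reaction without inhibitor and -100% = no enzyme wells; top concentration of the series not given in the record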
#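 Sfp 15 nM + cpd, 15 min RT; start w/ rhodamine-CoA 5 uM, BHQ-2-YbbR 12.5 uM (final); 50 mM Hepes pH 7.6, 10 mM MgCl2, 0.01% NP-40, 0.01% BSA; read 525/598 nm at 0 and 30 min.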
# gsp ag: agonists of gsp mutant (McCune-Albright syndrome) | AID 624287 | Potency, µM (doses to about 76.9 µM), inactives show top-dose activation (cAMP increase), actives largely listed as activators | gsp mutant cells, cAMP HTRF, 30 min; control for the full effect not named in the record | hit rate 0.13% among 340,000; active = well fitted activation curve with a large enough effect; inconclusive = small, poorly fitted or top-dose-only effect, or another doubt; inactive = no such curve, though single readings can be large or run the other way; cell line not stated here;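 note: phosphodiesterase inhibitor Ro 20-1724 added with compounds to block cAMP breakdown; potency is the fitted concentration of half-maximal effect; nearly all actives have a fitted effect of over 60% in size; about a fifth of the inactives were tested at one dose only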
#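 Cells in DMEM/10% FBS with G418 were pretreated with compounds in DMSO plus […] (300 uM stock) for 30 min at 37C. cAMP was measured by HTRF (cAMP-d2 plus anti-cAMP antibody-K) after 30 min at room temperature.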
# TRPML1 inh: inhibitors of human TRPML1 channel | Q9GZU1 | TRPML1-inducible cells, Ca2+ dye fluorescence, FDSS; stronger effect = lower value; inhibition of EC80 agonist-evoked calcium signal | activity change, negative = inhibition, % (concentration not given with the values) | hit rate 0.02% among 390,000; in the data active means activity change below about -50%; inconclusive means about -30% to -50%; inactive means above about -30%;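 note: stimulus is agonist 54-4 at its EC80 concentration; % is set by controls: 0 for no effect and ±100 for the full control effect; compound concentration not given in the record; the text of the record puts the active cut at -80%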
# Target sequence (Q9GZU1 whole entry, looked up): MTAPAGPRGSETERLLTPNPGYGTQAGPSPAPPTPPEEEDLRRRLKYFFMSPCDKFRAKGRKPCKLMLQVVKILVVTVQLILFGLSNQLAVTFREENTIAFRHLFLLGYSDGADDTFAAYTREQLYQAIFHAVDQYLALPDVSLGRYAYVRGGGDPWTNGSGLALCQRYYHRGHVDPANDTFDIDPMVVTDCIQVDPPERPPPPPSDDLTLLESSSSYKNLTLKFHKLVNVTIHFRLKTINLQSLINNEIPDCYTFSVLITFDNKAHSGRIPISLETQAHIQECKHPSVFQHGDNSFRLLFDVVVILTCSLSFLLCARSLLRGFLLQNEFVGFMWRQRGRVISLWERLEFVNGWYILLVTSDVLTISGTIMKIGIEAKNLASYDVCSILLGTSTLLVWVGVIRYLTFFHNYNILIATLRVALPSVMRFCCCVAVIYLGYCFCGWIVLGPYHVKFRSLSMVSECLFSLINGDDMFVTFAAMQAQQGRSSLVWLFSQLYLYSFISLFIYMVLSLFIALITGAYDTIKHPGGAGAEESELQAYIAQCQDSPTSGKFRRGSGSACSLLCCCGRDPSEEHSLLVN
#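 TRPML1-DL cells, Tet-induced overnight (~16 h, 37 °C) at 1,500 cells/well, were loaded with Ca8 no-wash dye plus quencher for 45-90 min at room temperature. Compounds were pinned during FDSS kinetic reading; agonist 54-4 at EC80 (4 uM final) then added.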
# gsp antagonist: gsp mutant antagonism; gsp-mutant cells, cAMP HTRF, 30 min; control for the full effect not named in the record; Potency, µM (titrated, usually from 76.9 µM), without a hit: at the highest dose activity change, negative = inhibition, most hits filed as inhibitors; hit rate 0.4% among 340,000; AID 624288; active = falling curve of any shape with a large fitted effect; inconclusive = falling curve, mostly with a smaller effect; inactive = flat or rising curve; cell line not stated here;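 note: intracellular cAMP measured with PDE inhibitor Ro 20-1724 present during compound exposure; potency is the fitted concentration of half-maximal effect; % is set by controls: 0 for no effect and ±100 for the full control effect; nearly all actives have a fitted effect of over 65% in size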
#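 G418-selected cells were plated in DMEM/10% FBS for 16-24 h at 37C, then treated with compounds plus the PDE inhibitor […] (300 uM solution added) for 30 min at 37C. Intracellular cAMP was measured by HTRF after 30 min lysis at room temperature.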
# * = called active by the depositor; u = inconclusive; x = no result given; [ ] = dose if it differs, or a comment.
SMILES,ClpP mod,Menin-MLL FL inh,TRPV1 potentiator,Sfp PPTase inh,gsp ag,TRPML1 inh,gsp antagonist
O=C(COC(=O)c1cc(S(=O)(=O)N2CCCC2)ccc1O)Nc1ccc(SC(F)F)cc1,-4.1%,x,-8.6,x,0.7%,-13.1,u
CCn1nnnc1-c1ccc(OC)c(S(=O)(=O)Nc2ccc(S(N)(=O)=O)cc2)c1,x,-2.2,2.0,1.2%,8.6%[15.4 µM],-5.0,x
COc1cc(/C=C/C(=O)OCC(=O)NCC(=O)Nc2cccc(C)c2C)ccc1OC(F)F,4.2%,x,1.9,x,-25.1%,3.3,3.6%
CCCCN1CC(COCc2ccccc2)Oc2cccc(Oc3ccc(C)cc3)c2S1(=O)=O (stereo not given),-4.8%,x,x,x,x,43.6,-1.8%
COc1ccccc1OCc1nc(C#N)c(N2CCC(C(N)=O)CC2)o1,1.3%,-0.4,-8.6,-3.0%,-2.9%,58.8,-18.5%
O=C(Nc1ccc(N2CCOCC2)cc1)c1ccccc1SCC(=O)N1CCCC1,x,-0.5,-4.7,-10.5%,-1.9%[15.4 µM],5.6,13.2%
COC(=O)c1ccc(Oc2cc(C)nc(NCc3ccccc3)n2)cc1,0.6%,5.8,2.5,14.5%,3.6%,33.0,-10.7%
Cc1ccc(S(=O)(=O)c2nnn(-c3cccc(F)c3)c2N)cc1,0.9%,-1.9,-19.2,-15.8%,3.5%[15.4 µM],5.5,13.6%
Cc1cccc(C)c1NC(=S)N/N=C1\CC2CC=CC12 (stereo not given),x,0.4,5.1,u,17.5%[15.4 µM],32.6,x
CC(=O)C[C@@H](O)CC(=O)[C@@H]1OC(=O)[C@@H](C)CCCCc2ccccc21,3.1%,x,x,x,x,17.7,5.2%
O=C(N/N=C/c1ccncc1)c1ccc(-n2cccc2)cc1,3.3%,4.6,-18.4,5.1%,-17.7%,5.6,-10.3%
CN(Cc1ccccc1)C(=O)c1cccc(NC(=O)Cc2ccc(NC(=O)C3CCN(C(=O)CCc4ccccc4)CC3)cc2)c1,0.1%,x,x,x,x,-4.2,-20.3%
O=C(O)C1CC=CCC1C(=O)NCc1cn2ccccc2n1 (stereo not given),4.0%,-7.7,-8.2,-1.2%,30.8%,-5.4,0.6%
Cc1ccc(NC(=O)c2cnn(-c3ccccc3)c2NC(=O)c2ccco2)cc1C,-2.6%,0.2,-0.6,22.0%,-1.2%,20.5,-18.5%
COCCCNC(=O)CC1Oc2ccccc2NC1=O (stereo not given),-0.7%,3.9,5.2,20.5%,-22.4%,19.2,2.2%
CN(/N=C/c1ccc(N(C)C)cc1)C1=NS(=O)(=O)c2ccccc21,x,u,0.0,-2.5%,13.1%[15.4 µM],-10.6,-7.4%
COc1ccccc1C(=O)NC(=O)COC(=O)c1oc2ccccc2c1C,u,x,7.3,x,3.3%,-17.0,0.2%
CC(=O)c1c(C)[nH]c(C(=O)COC(=O)c2ccc(C)s2)c1C,x,x,x,x,u,1.9,-5.6%
CC(=O)Nc1ccc(NC(=O)c2ccc3c(c2)CCN3S(C)(=O)=O)cc1,x,1.5,-23.1,3.7%,7.0%,20.1,-1.3%
CC(C(=O)N1CCN(Cc2ccc3c(c2)OCO3)CC1)n1cc([N+](=O)[O-])cn1 (stereo not given),x,-2.4,-44.2,14.9%,8.3%[15.4 µM],-4.0,-0.3%
COc1ccc(OC)c(-c2cc(C(=O)N/N=C/c3cc(OC)c(OC)cc3OC)c3ccccc3n2)c1,x,x,x,x,u,-3.0,0.0%
O=C(O)c1ccc2c(c1)c1c3n2CCNC3CCC1 (stereo not given),-19.6%,-6.8,-42.9,5.9%,13.3%[15.4 µM],43.0,-25.4%
CC1=NN(c2ccc(Cl)cc2)C(=O)C1C(c1ccccc1O)c1c(C)[nH]n(-c2ccc(Cl)cc2)c1=O (stereo not given),u,2.4,-1.5,30.2%[activator],10.9%,11.3,u
NS(=O)(=O)c1cc(C(=O)N2CCc3ccccc32)c(Cl)cc1Cl,1.4%,5.4,4.5,8.5%,-25.9%,17.6,8.7%
CCN1C(=O)N[C@H](c2ccc(Br)cc2)C(C(=O)OC)=C1C,-0.5%,-3.0[11.7 µM],x,-2.5%,29.1%,16.3,0.2%

# Part of the list above, with each value named:
COc1ccccc1OCc1nc(C#N)c(N2CCC(C(N)=O)CC2)o1
  ClpP mod = 1.3%; Menin-MLL FL inh = -0.4; TRPV1 potentiator = -8.6; Sfp PPTase inh = -3.0%; gsp ag = -2.9%; TRPML1 inh = 58.8; gsp antagonist = -18.5%

O=C(Nc1ccc(N2CCOCC2)cc1)c1ccccc1SCC(=O)N1CCCC1
  ClpP mod = x; Menin-MLL FL inh = -0.5; TRPV1 potentiator = -4.7; Sfp PPTase inh = -10.5%; gsp ag = -1.9%[15.4 µM]; TRPML1 inh = 5.6; gsp antagonist = 13.2%

COC(=O)c1ccc(Oc2cc(C)nc(NCc3ccccc3)n2)cc1
  ClpP mod = 0.6%; Menin-MLL FL inh = 5.8; TRPV1 potentiator = 2.5; Sfp PPTase inh = 14.5%; gsp ag = 3.6%; TRPML1 inh = 33.0; gsp antagonist = -10.7%

Cc1ccc(S(=O)(=O)c2nnn(-c3cccc(F)c3)c2N)cc1
  ClpP mod = 0.9%; Menin-MLL FL inh = -1.9; TRPV1 potentiator = -19.2; Sfp PPTase inh = -15.8%; gsp ag = 3.5%[15.4 µM]; TRPML1 inh = 5.5; gsp antagonist = 13.6%

# Further structures.
SMILES,ClpP mod,Menin-MLL FL inh,TRPV1 potentiator,Sfp PPTase inh,gsp ag,TRPML1 inh,gsp antagonist
CC(C)(C)c1ccc(OCc2ccc(C(=O)NCc3cccnc3)o2)cc1,0.2%,3.8,29.6,u,-16.3%,-5.0,u
Cc1ccc(-n2c(=O)c3sccc3n(CC(=O)NCc3ccco3)c2=O)cc1,-2.4%,-0.5,4.9,-5.0%,-18.5%,-28.6,2.8%
COCCCNCCCCOc1c(Cl)cc(C)cc1Br,0.6%,0.7,-13.6,-52.7%,0.7%,17.9,16.7%
CCc1noc(C)c1C(=O)OCC(=O)Nc1nc(-c2ccc(F)c(F)c2)cs1,-1.8%,x,1.4,x,8.4%,-9.5,39.8µM*
Cc1cc(Cl)cc(C)c1OCCOCCNCc1ccccc1,0.7%,3.4,-8.5,-18.0%,7.1%,44.6,9.9%
COc1ccccc1CNC(=O)c1cc(C(C)=O)c[nH]1,-2.4%,10.7,-5.6,9.2%,-7.5%,14.4,1.4%
CC(=O)Nc1cccc(/C(C)=N/NC(=O)c2cccs2)c1,x,1.1,2.9,-2.2%,18.5%,-4.8,11.4%
O=C1CCCCCN1C(=O)c1ccc(C(=O)N2CCCCCC2=O)cc1,1.0%,-3.2,-18.1,13.8%,14.0%,2.4,6.0%
CC(C)n1c(C(=O)OCC(=O)NCc2ccc3c(c2)OCO3)cc2sccc21,0.2%,9.3,4.7,5.1%,-33.4%[inhibitor],1.6,8.6%
CCOC(=O)C1=C(C)OC(N)=C(C#N)C1c1ccc(OC)c(CSc2ccccn2)c1 (stereo not given),-3.6%,8.8,-4.1,-10.2%,-69.7%[inhibitor],-6.6,-10.2%
COc1ccc(OC)c(-n2c(-c3cnccn3)n[nH]c2=S)c1,1.0%,0.5,5.9,-20.3%,25.5%,-8.7,6.1%
CC(NC(=O)C1CCCN(S(=O)(=O)c2cccc3nonc23)C1)c1ccccc1 (stereo not given),-0.5%,7.3,-6.2,1.8%,-0.6%,6.3,-11.5%
Cc1ccc(S(=O)(=O)NCc2cccnc2)cc1C(=O)N1CCCC1,x,-1.0,-1.3,14.7%,-10.2%[15.4 µM],-6.9,2.5%
O=C(Nc1ccc(S(=O)(=O)N2CCOCC2)cc1)c1ccc2c(c1)S(=O)(=O)c1ccccc1C2=O,0.3%,-4.6,-5.3,21.2%,20.6%[15.4 µM],51.9,-33.0%
C/C(=N/NC(=O)CC1N=C(Cc2ccccc2)NNC1=O)c1cccnc1 (stereo not given),0.8%,4.2,3.2,2.3%,16.9%[15.4 µM],25.5,0.9%
C=CCSc1nnc(NC(=O)c2ccc(NC(C)=O)cc2)s1,-4.1%,4.9,8.5,16.4%,-50.0%[inhibitor],3.2,u
Nc1ccc(-c2nnn(Cc3ccccc3F)n2)cc1,-0.8%,-0.5,-9.1,13.9%,1.3%[15.4 µM],2.3,10.8%
O=C(Nc1ccccc1C(=O)NCc1cccnc1)c1cccc([N+](=O)[O-])c1,x,0.6,1.4,-0.1%,4.9%[15.4 µM],11.9,-2.5%
CC(C)(C)S(=O)N1Cc2cc(=O)n(Cc3ccccc3)c(CCO)c2[C@H]1CCO (stereo not given in full),-19.8%,x,x,x,x,49.8,12.1%
CCC1CCC/C1=N\NC(=O)CCC(=O)Nc1ccccc1Cl (stereo not given),1.4%,7.2,-1.7,4.8%,-5.8%,9.2,10.9%
CCc1cc(S(N)(=O)=O)cc(CC)c1NC(C)=O,x,-2.4,-8.0,28.1%,2.7%[15.4 µM],9.7,-0.6%
COc1cccc(CN2CCC(CO)(CC3CCCCO3)CC2)c1 (stereo not given),x,-5.5,15.2,-0.4%,3.0%[15.4 µM],8.2,8.3%
Cc1ccc(C(=O)Nc2ccc(Oc3ccc(C(=O)O)c(C(=O)O)c3)cc2)cc1C,-2.0%,2.2,8.6,3.1%,-20.6%,-4.4,3.5%
CCOC(=O)N1CCC(NC(=O)c2ccccc2C(=O)O)CC1,x,0.5,6.6,10.9%,25.5%,5.1,6.9%
NC(=O)C1CCCN(CCc2ccccc2)C1 (stereo not given),0.9%,0.9,-4.9,14.0%,-39.7%[inhibitor],19.7,3.6%
Cc1ccc(NC(=S)N(Cc2ccco2)C(C)c2cccs2)c(Cl)c1 (stereo not given),-0.5%,-0.9,-3.4,8.5%,4.0%,22.6,-24.4%
CN1CCN(C(=O)C2CCCN(c3ncnc4c3nc3n4CCCCC3)C2)CC1 (stereo not given),-0.4%,x,-1.2,15.9%,u,-17.2,3.8%
COc1ccccc1C(=O)Nc1cc(Cl)ccc1-n1cncn1,-21.2%,5.9,-10.7,12.4%,u,35.6,-4.8%
